ugtP null kill = compounds lethal to S. aureus RN4220 ugtP deletion mutant. OD600 growth, 16 h; some inactives read as strong as hits. growth inhibition, % (test concentration not listed). actives 0.54% (n = 330,000). AID 1259309;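 active = z-score under -3 and OD600 up to 0.15 on both plates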;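 also: plate controls were untreated wells for no effect and antibiotic for full effect; wells of about 80 µL received 100 nL stock; the first replicate is given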
RN4220 kill = kills Staphylococcus aureus RN4220; AID 1259311; inhibition, % (concentration not given with the values); S. aureus RN4220 growth, OD600, 16 h; actives 0.33% (n = 330,000);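 active = z-score of -3 or lower and OD600 up to 0.18 on both plates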;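 also: plate controls were untreated cells for no effect and reference antibiotic for full effect; stock transfer was 100 nL into about 80 µL; one replicate is shown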
BJeLR lethal = kills HRASV12-expressing BJeLR cells | actives 0.17% (n = 300,000) | BJeLR (HRASV12) viability, CellTiter-Glo ATP luminescence, 48 h; reference of the scale not given here | inhibition, % (no concentration beside the values);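 active = replicate mean above 50%; inconclusive = above 50% but judged a plate artefact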;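 also: 50 nL library stock added to about 25 µL; numbers are from one replicate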
Bead autofluor = counter-screen for toxin protease inhibitors: compound fluorescence; AID 624483; compound autofluorescence counterscreen, microsphere flow cytometry; stronger effect = higher value; actives 3.1% (n = 360,000); fluorescence intensity (no concentration beside the values);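 active = at least 3 SD above the mean of all compounds, about 16000 in these data; inconclusive = too few beads counted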;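 also: 100 nL of 1 mM stock went into each well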
PrP 5UTR inh = suppresses PrP 5' UTR mRNA reporter expression; AID 488862; inhibition, % (test concentration not listed); actives 0.35% (n = 340,000); cell-based PrP 5' UTR mRNA reporter, plate reader;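 active = every replicate at 50% or more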;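 also: 0 = median of the neutral control wells; tested in H4 reporter cells; numbers are from one replicate; inactives centre near -14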
Mtb hypoxia rep = inhibitors of hypoxia-regulated fluorescent reporter in Mycobacterium tuberculosis. M. tuberculosis hypoxia-regulated fluorescent reporter, fluorescence. fluorescence inhibition, % (concentration not given with the values). actives 0.1% (n = 300,000). AID 1159583;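 active = 35 to 45% if threefold the growth effect, above 45% if 1.5-fold the growth effect; inactive = the rest, general growth blockers included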;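 also: wells of about 50 µL received 100 nL stock; 0% = vehicle wells and 100% = reference inhibitor wells; whole bacteria with a GFP reporter of the hypoxia response; strong numbers were not always called active; many hits fall short of the cut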
Mtb hypoxia rep growth = also measured in Mtb hypoxia rep; calls as there; growth inhibition, %; measured here: M. tuberculosis growth (absorbance);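 0% = vehicle and 100% = reference antibiotic; read after six days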
Starred values were filed as active, the others as inactive; u = inconclusive; x = no result given. Rows are unselected, and some 4% of all compounds hit somewhere here.

Every second line gives: ugtP null kill	RN4220 kill	BJeLR lethal	Bead autofluor	PrP 5UTR inh	Mtb hypoxia rep	Mtb hypoxia rep growth
(1) CC(C)/C=C/C(=O)N1CCCC(N2CCN(c3ccccc3F)CC2)C1 (stereo not drawn)
  5	-1.6	14	3565	-27	-1	9
(2) N#C/C(=C\c1ccccc1)C(=O)NNS(=O)(=O)c1ccc(Br)cc1
  -2	8.5	x	3795	-13	18	8
(3) C/C(=N\O)c1ccn(S(=O)(=O)c2ccc(Cl)cc2)c1
  x	x	2	5679	-5	x	x
(4) COc1ccccc1CNc1ncnc2c1nnn2Cc1ccccc1
  14	-7.8	-1	3711	-7	x	x
(5) N#C/C(=C\c1ccccc1)C(=O)N(c1ccccn1)C1CCCCC1
  x	x	0	8185	-15	x	x
(6) COc1ccc2cc(C(=O)C3CCCN(C(=O)c4cncs4)C3)ccc2c1 (stereo not drawn)
  8	3.7	5	4761	-9	0	-9
(7) Cc1ccccc1NC(=O)CSc1ccc2nnc(-c3ccccn3)n2n1
  5	-0.3	3	6844	-12	7	16
(8) O=C(O)c1cccc(Nc2cc(Cl)c3nonc3c2[N+](=O)[O-])c1
  1	2.5	-2	5150	-17	11	-1
(9) Cc1ccc(NC(=O)CN2CCCC2c2cccn2C)c(Br)c1 (stereo not drawn)
  -4	6.5	x	8647	-26	3	0
(10) CN(C)CCN1C(=O)c2oc3ccccc3c(=O)c2C1c1ccc(F)cc1 (stereo not drawn)
  -1	0.1	4	10195	-12	1	2

Entries of single compounds from above. Values in the order: ugtP null kill | RN4220 kill | BJeLR lethal | Bead autofluor | PrP 5UTR inh | Mtb hypoxia rep | Mtb hypoxia rep growth
N#C/C(=C\c1ccccc1)C(=O)NNS(=O)(=O)c1ccc(Br)cc1 is listed as -2 | 8.5 | x | 3795 | -13 | 18 | 8
N#C/C(=C\c1ccccc1)C(=O)N(c1ccccn1)C1CCCCC1 is listed as x | x | 0 | 8185 | -15 | x | x

Entries by screen from the entries so far:
Compounds 5 to 10 in PrP 5UTR inh, in turn: -15, -9, -12, -17, -26, -12

Next compounds follow:
Every second line gives: ugtP null kill	RN4220 kill	BJeLR lethal	Bead autofluor	PrP 5UTR inh	Mtb hypoxia rep	Mtb hypoxia rep growth
(11) CC1(C)CC(=O)C2=C(C1)OC(N)=C([N+](=O)[O-])C2c1ccc(C#N)s1 (stereo not drawn)
  6	6.3	6	3241	-23	0	3
(12) Cc1ccc(C)c(-c2cc(C(=O)Nc3sc(C)c(C)c3C(N)=O)c3ccccc3n2)c1
  1	-3.7	-9	23000*	-33	-2	-7
(13) Cc1ccc(S(=O)(=O)c2nc(Nc3nccs3)sc2Cl)cc1
  -6	7.4	12	7101	-6	8	11
(14) CCOC(=O)c1c(C)sc2c1N(C(=O)CN1CCOCC1)c1cc(Cl)ccc1S2
  -20	10	1	3474	2	x	x
(15) CCOCCCNC(=O)CCn1nc(-c2ccc(Cl)cc2)ccc1=O
  -2	2.7	0	3726	-22	-4	1
(16) COc1ccccc1N(CC(=O)N(c1ccccc1)C(C)C)S(=O)(=O)c1cccs1
  11	3.0	4	4847	-21	6	0
(17) COc1ccccc1N(CC(=O)NN=Cc1ccccc1C(=O)O)S(C)(=O)=O
  0	6.9	x	x	x	9	4
(18) CCN1C(=O)[C@@H]2[C@@H](c3ccc(-c4ccc(OC)cc4)cc3)N3CCCC[C@@]3(C(=O)OC)[C@@H]2C1=O
  x	x	-9	4893	-9	x	x
(19) COc1ccc(C(=O)CCS(=O)(=O)c2ccc(C)cc2)cc1
  11	6.1	-10	4451	-15	6	0
(20) O=C1N/C(=N/c2ccccn2)SC1Cc1ccccc1 (stereo not drawn)
  -1	4.3	-3	10304	1	4	7
(21) Cc1nn(Cc2ccc(F)cc2)c2sc(C(=O)Nc3ccccc3N3CCOCC3)cc12
  3	0.7	-12	2376	-9	-15	-3
(22) Cc1sc(NN=Cc2cccnc2)nc1-c1ccc(Cl)cc1
  -13	0.5	x	x	x	5	0
(23) Cc1cnc(C(=O)N2CCCC(C(=O)c3ccc(C(C)(C)C)cc3)C2)cn1 (stereo not drawn)
  -2	1.6	8	4145	-33	6	2
(24) CCOC(=O)c1sc(=S)n(Cc2ccccc2)c1C
  19	4.5	-4	4426	-3	7	6
(25) CCOc1cc(C(=O)OCC(=O)Nc2ccc(Cl)cn2)ccc1OCC(=O)N1CCOCC1
  8	0.8	5	2517	-19	-1	7
(26) COc1ccc([N+](=O)[O-])cc1C=NNc1nn[nH]n1
  16	7.0	x	x	x	-2	-5
(27) Cc1c(C(=O)Nc2nccs2)oc2c(Cl)cccc12
  -10	8.2	-10	6014	-27	1	8
(28) Cc1ccc2c(c1)C1CN(C)CCC1N2S(=O)(=O)c1ccccc1F (stereo not drawn)
  6	6.7	x	3105	-12	9	7
(29) CCN(CC)S(=O)(=O)c1ccc(N2CCN(S(=O)(=O)c3ccccc3C#N)CC2)nc1
  -10	0.3	-5	2860	11	x	x
(30) CCC(=O)N1CCc2cc(S(=O)(=O)NC(Cc3ccccc3)C(=O)NC3CCCCC3C)ccc21 (stereo not drawn)
  0	5.9	-1	12593	-12	1	10

Reprinted from the part before: six compounds, then new ones.
Every second line gives: ugtP null kill	RN4220 kill	BJeLR lethal	Bead autofluor	PrP 5UTR inh	Mtb hypoxia rep	Mtb hypoxia rep growth
(25) CCOc1cc(C(=O)OCC(=O)Nc2ccc(Cl)cn2)ccc1OCC(=O)N1CCOCC1
  8	0.8	5	2517	-19	-1	7
(26) COc1ccc([N+](=O)[O-])cc1C=NNc1nn[nH]n1
  16	7.0	x	x	x	-2	-5
(27) Cc1c(C(=O)Nc2nccs2)oc2c(Cl)cccc12
  -10	8.2	-10	6014	-27	1	8
(28) Cc1ccc2c(c1)C1CN(C)CCC1N2S(=O)(=O)c1ccccc1F (stereo not drawn)
  6	6.7	x	3105	-12	9	7
(29) CCN(CC)S(=O)(=O)c1ccc(N2CCN(S(=O)(=O)c3ccccc3C#N)CC2)nc1
  -10	0.3	-5	2860	11	x	x
(30) CCC(=O)N1CCc2cc(S(=O)(=O)NC(Cc3ccccc3)C(=O)NC3CCCCC3C)ccc21 (stereo not drawn)
  0	5.9	-1	12593	-12	1	10
(31) CCOC(=O)C1(C)NC(c2ccco2)C2C(=O)N(C)C(=O)C21 (stereo not drawn)
  -1	1.2	-2	3507	-12	-5	1
(32) O=C(Cn1c(=O)n(-c2ccc(F)cc2)c(=O)c2sccc21)c1ccccc1
  7	5.6	9	1936	-16	-1	10
(33) Cc1ccc(NC(=O)OCCNC(=O)c2ccncc2)cc1
  -2	3.2	-17	4879	-15	-7	1
(34) COCCCNC(=O)c1ccc(CSCc2ccc(C)cc2)o1
  -6	0.3	5	3683	-14	-7	3
(35) Cc1c(CN2CCC(C(=O)Nc3ccc(Oc4ccccc4)nc3)CC2)cnn1C
  -3	5.9	-2	5891	-21	10	1
(36) CCOc1ccc(N/C=C/C(=O)c2ccc(OC)cc2)cc1
  5	2.7	-13	4042	-53	1	4
(37) Cc1cc(C)n(S(=O)(=O)Cc2ccccc2)n1
  -4	2.1	-6	10938	3	5	9
(38) Cc1ccc2[nH]c3ccccc3c(=O)c2c1
  20	8.8	-13	3634	x	15	12
(39) Cc1sc2ncn(CC(=O)N3CCCCC3)c(=O)c2c1S(=O)(=O)N1CCC(C)CC1
  4	1.6	3	5732	-6	-12	-8
(40) O=C(CN1C(=O)NC(Cc2ccccc2)(Cc2ccccc2)C1=O)NCC1CCCCC1
  7	7.5	1	20163*	-13	6	5
(41) COc1ccc(C2(CNC(=O)c3cc([N+](=O)[O-])cc([N+](=O)[O-])c3)CCCC2)cc1OC
  7	-10	13	2365	-14	x	x
(42) Cc1ccc(C(=O)CCC(=O)Nc2cccc(C)c2)cc1
  -8	-1.7	3	3745	-6	-7	11
(43) Cc1ccc(S(=O)(=O)CCC(=O)c2cccc([N+](=O)[O-])c2)cc1
  x	x	0	5617	-5	x	x
(44) COc1ccc(-c2c(C)nn3c(N)c(C#N)cnc23)cc1OC
  7	4.4	0	4430	-1	-2	11
(45) CCN(CC(=O)NCc1ccc(Cl)cc1)C(=O)CCc1ccccc1O
  29	-4.1	-11	2870	6	-10	4
(46) Cc1ccc(-c2noc(CCC(=O)Nc3ccccc3C)n2)cc1
  3	-3.9	2	5727	-2	0	-7
(47) c1ccc(COc2ccccc2CNc2nn[nH]n2)cc1
  5	6.3	10	2052	-5	13	10
(48) CC(=O)OC1C2CCC1C(N1CCCCC1)CC2 (stereo not drawn)
  2	1.8	-2	4682	-27	3	-13
(49) COc1ccc(CCNC(=O)COc2ccc(S(=O)(=O)NC3CCCCC3)cc2Cl)cc1
  -11	-3.8	12	9950	-11	4	-2
(50) Cn1c(C(=O)NCc2ccccc2)cc2oc3ccccc3c21
  13	2.6	14	3889	-31	2	5
(51) Cc1ccccc1-c1nc(CN2CCC(C(=O)NCCCN3CC(C)CC(C)C3)CC2)c(C)o1 (stereo not drawn)
  -8	-1.4	2	22754*	-5	17	6
(52) CCOC1=CC(=O)N(Cc2ccccc2)C1
  1	0.8	-9	5442	-18	x	x
(53) O=C(COC(=O)c1cc[n+]([O-])cc1)Nc1ccc([N+](=O)[O-])cc1Cl
  -12	-0.1	4	4131	-33	-9	-5
(54) COc1ccc([C@H]2CC(=O)C=C(c3ccc(OC)cc3OC)C2)cc1
  56	-5.2	x	3130	-16	7	5
(55) COC(=O)C1=C(C)N=C2SCCC(=O)N2C1c1cc(Br)ccc1OC (stereo not drawn)
  -5	-6.6	-7	3244	-21	10	12
(56) CCOc1cc2[nH]c(=S)n(CCN3CCCCC3C)c(=O)c2cc1OCC (stereo not drawn)
  3	1.8	4	10270	-29	7	1
(57) Cc1cnc(C(=O)OCC(=O)c2c[nH]c3ccccc23)cn1
  -3	-0.3	x	9016	-8	-1	6
(58) Cc1ccc(C)c(OCc2cc(C(=O)N3C[C@@H](C)O[C@@H](C)C3)no2)c1
  4	3.0	-1	4071	-52	10	7
(59) COc1ccc(N2CCN(C3CCCN(Cc4cccc(C)c4)C3)CC2)cc1 (stereo not drawn)
  7	5.2	1	3849	-1	1	6
(60) CCOc1ccccc1C(=O)N[C@H](C(=O)NCc1ccccc1)C(C)C
  4	1.9	2	4670	-2	6	12
(61) O=C(O)CC1SC(=O)N(CC(=O)c2ccccc2)C1=O (stereo not drawn)
  15	-2.4	-7	3931	-23	12	14
(62) O=C(Cn1cc(C(=O)c2ccccc2)c2ccccc21)NCc1ccco1
  1	2.8	0	4699	-2	x	x
(63) CCOC(=O)C1=C(O)C(=O)NC(c2ccccc2)=C(OCC)C1
  7	3.6	-5	11166	-32	4	8
(64) CC(=O)Nc1ccc(NC(=O)c2nc(-c3ccccc3)oc2C)cc1
  -6	-0.7	-5	4744	-36	-4	-4
(65) COc1ccc(OC)c(/C=C/C(=O)N2CCCc3ccccc32)c1
  3	4.7	1	4660	-16	24	13
(66) COc1ccc(CNC(=O)C2CCN(S(=O)(=O)c3ccccc3)CC2)cc1
  1	-4.3	-6	u	1	-6	-8
(67) CC(C)Oc1ccc(C(=O)NN2C(=O)NC3(CCCCC3)C2=O)cc1
  5	3.4	x	3011	-31	-4	-4

From PubChem BioAssay
